S aureus helic – S. aureus DNA helicase inhibition; purified S. aureus helicase, fluorescence unwinding assay; about half of the hits fall short of the stated cut; inhibition, %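 (tested at about 80 µM)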; 120,000 tested, 0.05% active; AID 485395;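 active = both duplicates at 50% or more, or one of them with a favoured structure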;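 note: 0% = mean of negative control wells and 100% = mean of positive control wells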
MgrA-DNA mod – alters Staphylococcus aureus MgrA binding to DNA; fluorescence polarization; inhibition, %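 (about 10 µg/mL by stock and volumes)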; 84,000 tested, 0.13% active; AID 602314;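 active = above 50% in either of two replicates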;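 note: 0% = protein plus DNA without compound and 100% = DNA alone without protein; higher means less MgrA bound to DNA so lower polarization; one replicate is shown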
The depositor's hits bear a star; nt = not tested or not shown.

Value order – S aureus helic	MgrA-DNA mod
1	COc1ccccc1NC(=O)c1ccc(-n2cccn2)cc1
    11	2.4
2	CNCc1ccc2c(c1)n(C)c(=O)n2C
    14	nt
3	CC(C)CCn1c(=O)c2ccccc2n2c(COC(=O)c3cc(F)cc(F)c3)nnc12
    11	nt
4	CCCN1C(=O)/C(=N\OCC(=O)NCCC2=CCCCC2)c2ccccc21
    9	nt
5	CC(c1ccccc1)N1Cc2c(oc3ccccc3c2=O)N(C(=O)OCc2ccccc2)C1 (stereo unspecified)
    25	nt
6	COc1ccccc1-n1cnnc1SCC#N
    3	nt
7	CS(=O)(=O)c1ccc(-c2csc(-c3ccc4c(c3)OCCO4)n2)cc1
    nt	-1.4
8	O=C(NCC1COc2ccccc2O1)c1cc2ccccc2o1 (stereo unspecified)
    16	2.3
9	CC(C)(C)/C=C(\C#N)C(C)(C)C
    15	nt
10	COc1ccc(/C=C/C(=O)C2(O)CCCCC2)cc1OC
    9	-0.2
11	Cc1cn2cc(-c3cccc(Cl)c3)nc2s1
    5	3.0
12	N#Cc1cc2c([nH]c1=O)CCCC2=O
    nt	-0.4
13	CN1CCN(CCCNC(=O)Cn2ncc3c4ccccc4n(C)c3c2=O)CC1
    -14	nt
14	O=c1oc2ccccc2n1CO
    6	nt
15	O=C(NCc1ccco1)c1ccc(Cl)c(NS(=O)(=O)c2ccc(F)cc2)c1
    29	nt
16	Cc1nc2ncnn2c(C)c1CCC(=O)N(C)c1ccccc1
    8	1.3
17	O=C(CN1Cc2ccccc2C1=O)Nc1ccc(Br)cc1F
    -14	nt
18	CC(=O)NC(Sc1ccc(Cl)cc1)C(=O)c1ccccc1 (stereo unspecified)
    5	nt
19	Cc1[nH]n(-c2ccccc2)c(=O)c1/C=N/Nc1nnc(C)c(=O)[nH]1
    8	nt
20	COc1nc(Nc2ccccc2)nc(OCC(F)(F)F)n1
    0	1.8
21	c1cc2c(cc1C1CCCCC1)c1c3n2CCCNC3CCC1 (stereo unspecified)
    5	-1.1
22	CCCCCn1c(CO)nc2ccccc21
    -10	nt
23	CCN1CCCC1CNC(=O)c1cc2c(=O)n(C)c3ccccc3c2n1C (stereo unspecified)
    27	2.8
24	COC(=O)c1ccccc1S(=O)(=O)N1CCC(C(=O)OCC(=O)NC2CCCCC2C)CC1 (stereo unspecified)
    23	nt
25	CCN(CC(=O)Nc1ccccc1C(F)(F)F)CC(=O)NC1CC1
    -11	nt
26	Cc1ccc(N)cc1CN1CCCC1=O
    -12	nt
27	Cc1cc(Br)cc(C)c1OCCCN(C)C
    -8	nt
28	S=C(c1ccccc1)N1CCSCC1
    nt	1.2
29	CCOC(=O)c1cc(-c2ccc(F)cc2)n(CC(=O)NN2CCOCC2)c1C
    7	nt
30	COC(=O)c1c(NC(=O)c2ccc(Cl)s2)sc2c1CCN(C(C)=O)C2
    -16	nt
31	CCOC(=O)N1CCN(C(=O)CNC(=O)c2ccc(Br)cc2)CC1
    -8	-2.1
32	CCN(CC)C(=O)CCc1nc(CN2CCN(C(=O)c3cc(-c4cccs4)on3)CC2)no1
    -26	nt
33	Nc1cc(=O)[nH]c(=O)n1CCO
    8	nt
34	O=C(CN1C(=O)C2CC=CCC2C1=O)NC1CCCc2ccccc21 (stereo unspecified)
    3	nt
35	O=C(O)CC1S/C(=N/N=C/c2ccccc2)NC1=O (stereo unspecified)
    -2	0.5
36	N#CCC(=O)N1CCn2c1nc1ccccc12
    6	-0.6
37	CC(C)(O)C#CC(O)c1ccc(F)cc1 (stereo unspecified)
    18	nt
38	Cc1ccc(-c2cc(C(F)F)nc(NCc3ccco3)n2)cc1
    19	nt
39	CC1(C)CC(=O)CC(=O)S1
    4	nt
40	CS(=O)(=O)NCCNc1cc(-c2ccccc2)nc2ccccc12
    nt	-5.2

Shown with bars between the fields: part of the list above.
no. | mol | S aureus helic | MgrA-DNA mod
33 | Nc1cc(=O)[nH]c(=O)n1CCO | 8 | nt
40 | CS(=O)(=O)NCCNc1cc(-c2ccccc2)nc2ccccc12 | nt | -5.2
35 | O=C(O)CC1S/C(=N/N=C/c2ccccc2)NC1=O (stereo unspecified) | -2 | 0.5
36 | N#CCC(=O)N1CCn2c1nc1ccccc12 | 6 | -0.6

Later entries.
Value order – S aureus helic	MgrA-DNA mod
41	COc1cc2[nH]c(=S)n(NC(=O)CC(C)C)c(=O)c2cc1OC
    20	4.9
42	Cc1nn(CC(=O)NCCc2ccccc2)c2ccccc12
    6	nt
43	O=C(O)c1cc2ncc(Br)cn2n1
    22	nt
44	CC(NC(=O)C12CC3CC(CC(C3)C1)C2)C(=O)N1CCOCC1 (stereo unspecified)
    -14	nt
45	CCOC(=O)c1cc(C)nn1C(=O)c1ccccc1Cl
    nt	0.6
46	CC(C)(CNc1nc2cc3c(cc2nc1NS(=O)(=O)c1ccccc1)OCCO3)N1CCOCC1
    -16	nt
47	CCOc1ccc2c(c1)sc(=NC(=O)c1ccc(S(=O)(=O)N3CCCCC3C)cc1)n2CC (stereo unspecified)
    -4	1.1
48	CCc1ccc(CCC(=O)Nc2cccc(NC(=O)CCc3ccc(CC)o3)c2)o1
    8	2.8
49	CC(=O)Nc1ccc(C(=O)CSc2nnnn2C(C)C)cc1
    8	16
50	NC(=O)CSc1nnc(NC(=O)c2cccs2)s1
    10	nt

Compound profiles (already shown). Order of screens: S aureus helic, MgrA-DNA mod
Cc1nn(CC(=O)NCCc2ccccc2)c2ccccc12 is entered as 6, nt
CC(C)(CNc1nc2cc3c(cc2nc1NS(=O)(=O)c1ccccc1)OCCO3)N1CCOCC1 is entered as -16, nt
CC(=O)Nc1ccc(C(=O)CSc2nnnn2C(C)C)cc1 is entered as 8, 16
CCOc1ccc2c(c1)sc(=NC(=O)c1ccc(S(=O)(=O)N3CCCCC3C)cc1)n2CC (stereo unspecified) is entered as -4, 1.1

Remaining list, next part:
Value order – S aureus helic	MgrA-DNA mod
51	O=C(c1ccc(OC(F)F)cc1)N1CCN(c2ccccc2)CC1
    -4	nt
52	CCNS(=O)(=O)c1cc(Cl)sc1Cl
    nt	-0.5
53	CC1=C(C(=O)OCCOc2ccccc2)C(c2ccc(OCc3ccccc3)cc2)NC(=O)N1 (stereo unspecified)
    nt	-1.8
54	CC(=O)N1C(c2ccccc2)CC(=O)C(c2ccccc2)C1c1ccccc1 (stereo unspecified)
    -2	0.5
55	Cc1nccnc1-c1ccnn1C(=O)Nc1cc(Cl)cc(Cl)c1
    nt	-0.2
56	CCc1ccc(NC(=O)COc2ncnc3c2cnn3-c2ccccc2)cc1
    6	nt
57	c1ccc(Cc2noc(-c3ccccc3)n2)cc1
    14	nt
58	CC1CCN(c2ccc(NC(=O)CCC(=O)O)cc2)CC1
    -1	-0.2
59	CCCC1CCC(c2ccc(C(N)=O)cc2)CC1 (stereo unspecified)
    -12	0.5
60	CC(/C=N/NC(=O)c1ccco1)=C\c1ccco1
    -9	4.8
61	CC1CCN(c2nnc(N)s2)CC1
    8	0.5
62	O=C1Nc2ccccc2/C1=C\c1c[nH]c2ccccc12
    nt	-1.7
63	Cc1cc(C)nc(/N=C2\NC(=O)CC(C(=O)O)N2c2ccc(Oc3ccccc3)cc2)n1 (stereo unspecified)
    -13	nt
64	O=C(O)c1ccccc1Nc1ccc(SC(F)F)cc1
    -10	nt
65	CC(=O)Nc1cc([N+](=O)[O-])ccc1C
    nt	-0.1
66	COc1ccc(-c2cc(=NC(CC(C)C)C(=O)O)c3cc(C)ccc3o2)cc1 (stereo unspecified)
    7	-0.3
67	CC1=NN(c2ccccc2)C(=O)C1C=C1C(=O)N(C)C(=S)N(C)C1=O (stereo unspecified)
    4	0.2
68	COc1ccc(CNC(=O)CC2Oc3ccccc3NC2=O)cc1 (stereo unspecified)
    10	4.8
69	Cc1cc(NC(=O)Cn2c(=O)n(CC3CCC(C(=O)NCCc4ccccc4)CC3)c(=O)c3ccccc32)n[nH]1 (stereo unspecified)
    -7	nt
70	CCOC(=O)C1=NN(c2ccccc2)C(=C2C(=O)c3ccccc3C2=O)S1
    nt	0.6
71	O=C(CNc1ccccc1F)N/N=C1\CCCCc2ccccc21
    3	nt
72	COc1ccc(NC(=O)c2ccc3c(=O)n(CCc4ccccc4)c(=S)[nH]c3c2)cc1
    6	0.2
73	COC(=O)c1cc(Cl)cc(Cl)c1
    nt	2.6
74	CCc1ccc2oc(C(=O)N(Cc3ccc(N(C)C)cc3)Cc3ccco3)cc(=O)c2c1
    17	nt
75	Cn1c(=O)oc2cc(S(=O)(=O)N3CCCC3)ccc21
    -16	nt
76	CCOC(=O)c1sc2ncn(CC(=O)N3CCCc4ccccc43)c(=O)c2c1C
    5	nt
77	Nc1oc2cc(O)ccc2c(=O)c1-c1nc2ccccc2s1
    -8	1.5
78	COC(Cn1c(=S)[nH]c2ccccc2c1=O)OC
    -9	0.7
79	O=C(c1ccco1)N1CCN(C2c3cccc4cccc(c34)C2NS(=O)(=O)c2ccccc2)CC1 (stereo unspecified)
    6	1.7
80	CSCCSc1nnc(Nc2cccc(C)c2C)s1
    7	nt
81	NC(=O)c1c(-c2ccccc2)oc2ccc(O)cc12
    2	-2.3
82	c1cncc(-c2nnc3n2CCCCC3)c1
    -18	nt
83	CN(C(=O)COC(=O)c1ccc(Br)o1)c1ccccc1
    -5	-1.0
84	CCc1ccc(C(=O)Nc2cc(NC(=O)c3ccco3)ccc2C)cc1
    -10	-0.4
85	CCN(Cc1ccccc1)S(=O)(=O)c1ccc(C(=O)Nc2nnc(COC)o2)cc1
    -1	1.1
86	Clc1ccc(-c2nc3cc(CN4CCCCC4)ccc3o2)cc1
    nt	-5.0
87	COc1ccc(NC(=O)CC(C)S(=O)(=O)c2ccc3c(c2)NC(=O)CO3)cc1 (stereo unspecified)
    6	nt
88	O=C1CCCc2cc(S(=O)(=O)NCC3CCC(C(=O)Nc4ccccc4)CC3)ccc2N1 (stereo unspecified)
    -14	nt
89	O=C1CCC([N+](=O)[O-])C(C2CCCCC2)N1 (stereo unspecified)
    nt	-0.7
90	Cc1cccc(N2COc3cc4c(cc3C2)OCO4)c1
    38	nt
91	COc1ccc(OC)c(N/C=C(\C#N)c2nc(-c3cc4ccccc4oc3=O)cs2)c1
    0	1.7
92	CCc1nc2cccnc2n1-c1ccc(CC(=O)NCCOC)cc1
    3	nt
93	O=C(COC(=O)c1ccco1)c1ccc(-n2nncc2C23CC4CC(CC(C4)C2)C3)cc1
    -1	nt
94	Cc1ccc(S(=O)(=O)/C(C#N)=N/O)cc1
    nt	2.7
95	CN(Cc1cccs1)C(=O)c1ccc2c(c1)NC(=O)CS2
    -18	nt
96	CCCC(=O)c1ccc(N2CCc3ccccc3C2)c(F)c1
    -8	nt
97	Cn1c(=O)oc2cc(S(=O)(=O)NCCC(=O)NC3CCCc4ccccc43)ccc21 (stereo unspecified)
    15	nt
98	Cc1cc(C)c(-n2c(SCCS(=O)(=O)c3ccc(F)cc3)n[nH]c2=O)c(C)c1
    nt	-1.4
99	CCC(C)N1C(=O)S/C(=C/c2ccc(O)c(Cl)c2)C1=O (stereo unspecified)
    -8	-0.9
100	CC1CN(C(=O)C(C)NC(c2ccccc2)c2ccccc2)CC(C)O1 (stereo unspecified)
    -2	nt

Carrying on:
Value order – S aureus helic	MgrA-DNA mod
101	O=C(NC1CCCCC1)/C(=C\c1cccs1)NC(=O)c1ccccc1
    -22	nt
102	COc1ccc(C2C(C(=O)NCc3ccccn3)c3ccccc3C(=O)N2C)cc1 (stereo unspecified)
    8	1.7
103	COc1ccc(-n2ncc3c(=O)[nH]cnc32)cc1
    -19	nt
104	CC(=O)Nc1ccc(S(=O)(=O)Nc2nc(CN3CCOCC3)nc3sc4c(c23)CCCC4)cc1
    -24	nt
105	Cc1ccc(C(=O)Nc2nnc(CCS(=O)(=O)c3ccc(Cl)cc3)s2)cc1[N+](=O)[O-]
    nt	0.3
106	COC(=O)c1ccc(COC(=O)c2cccn2C)o1
    -12	nt
107	Cc1nc(NC(=O)CSC2=NCCS2)sc1C(=O)N(C)C
    10	0.0
108	COC(=O)c1ccccc1S(=O)(=O)N1CCC(C(=O)O)CC1
    9	nt
109	Cc1nc2ccc(Cl)cc2n1CO
    4	-0.9
110	O=C(COc1cccc(Oc2ccccc2)c1)Nc1ncccn1
    -9	nt
111	OC(c1ccccc1)(c1ccccc1)C(F)F
    -7	nt
112	COC(=O)c1cc(C2CC2)[nH]n1
    5	0.2
113	CCOC(=O)Cn1cc(C(=O)c2cccs2)c2ccccc21
    18	nt
114	CCN(CC)c1ccc2cc(C(=O)NC(C)=O)c(=Nc3cccc4ccccc34)oc2c1
    nt	-0.4
115	COc1ccc(NC(=O)CNS(=O)(=O)/C=C/c2ccc(C)cc2)cn1
    -2	nt
116	O=C(NC1CCCC1)c1cc2nc(-c3ccccc3)cc(-c3ccccc3)n2n1
    13	3.1
117	C=CCn1ccn(-c2ccc(OCC)cc2)c(=O)c1=O
    10	nt
118	CCOC(=O)c1cc(C#N)c(=O)[nH]c1-c1ccccc1
    nt	0.8
119	Cc1ccc(Cn2cnc3c(nnn3Cc3ccc(C)cc3)c2=O)cc1
    2	nt
120	O=C(Nc1ccc(S(=O)(=O)N2CCOCC2)cc1)c1cnccn1
    15	-1.6
121	COC(=O)c1sccc1NC(=O)CC1C(=O)NCCN1C(=O)c1ccccc1 (stereo unspecified)
    -26	nt
122	Cc1nc2c(ccc3ccsc32)s1
    22	nt
123	O=C(NNc1nc(N2CCOCC2)nc(N2CCOCC2)n1)c1ccc(F)cc1
    5	1.4
124	Cc1ccc(S(=O)(=O)N2CCN(C(=O)Cn3c(=O)oc4ccccc43)CC2)cc1
    -2	nt
125	NNC(=O)c1ncoc1-c1ccc(Cl)cc1
    nt	-2.8
126	CCOC(=O)c1c(C)n(-c2ccccc2)c2c1cc(OC(=O)c1ccccc1)c1ccccc12
    nt	-1.0
127	O=S1(=O)N=C(NNS(=O)(=O)c2ccccc2)c2ccccc21
    -5	1.6
128	C=CCN(c1nc(C)c(Br)c(OC)n1)S(=O)(=O)c1ccc(C)cc1
    nt	-1.2
129	COc1ccc2[nH]c(=O)c(CN(C(=O)Nc3ccccc3)C3CCCC3)cc2c1
    2	1.6
130	O=C(COC(=O)Cn1cnc2ccccc2c1=O)Nc1ccc(N2CCOCC2)cc1
    -9	nt

Source: PubChem BioAssay (ICCB-Longwood Screening Facility, Harvard Medical School)

The list is partial; rates above refer to the full screens.
